VACV mCherry inh: inhibitors of vaccinia virus infection (mCherry reporter signal); Potency, µM (titrated, usually from 36.5 µM), inactives show at the top dose activity change, negative = inhibition, usual class: inhibitors; Vaccinia virus mCherry reporter infection, fluorescence; about a quarter of the inactives have no number; actives 0.63% (n = 310,000); AID 720579; active = well fitted inhibition curve with a large enough effect; inconclusive = small, poorly fitted or top-dose-only effect; inactive = no such curve, though single readings can be large or run the other way; tested in A549 cells; note: nearly all actives have a fitted effect of over 35% in size; inactives centre near -10
Vaccinia Venus: vaccinia inhibition (Venus reporter). Vaccinia virus Venus reporter expression, fluorescence. actives 0.46% (n = 330,000). Potency, µM (highest dose often 36.5 µM), without a hit: at the top dose activity change, negative = inhibition, actives largely listed as inhibitors; active means well fitted inhibition curve with a large enough effect; inconclusive means small, poorly fitted or top-dose-only effect; inactive means no such curve, though single readings can be large or run the other way; tested in A549 cells; note: nearly all actives have a fitted effect of over 30% in size; inactives centre near -10
Numbers without * were called inactive; & = joins results of further samples; [ ] = another dose, or the depositor's remark. % is set by controls: 0 for no effect and ±100 for the full control effect; potency is the fitted concentration of half-maximal effect.

Results for CCCNC(=O)C(Cc1cccc(OC)c1)NC(=O)c1ccc(C#N)cc1 (stereo unspecified) ?
VACV mCherry inh: inactive; Vaccinia Venus: -7%

Results for COC(=O)COc1ccc(Oc2nc(NC(C)(C)C)nc(N3CCOCC3)n2)nn1 ?
VACV mCherry inh: -4%; Vaccinia Venus: -9%

How did O=C(COc1ccc2c(-c3ccccc3)cc(=O)oc2c1)N[C@@H](Cc1c[nH]c2ccc(O)cc12)C(=O)O do in these assays?
VACV mCherry inh: 2%; Vaccinia Venus: -6%

How did CCOc1ccccc1N1CCN(C(=O)c2c(-c3c(F)cccc3Cl)noc2C)CC1 do in these assays?
VACV mCherry inh: -2%; Vaccinia Venus: -18%

How did CCc1nc2ccc(C(=O)N(C)CC(=O)Nc3ccc(F)c(F)c3F)cc2nc1CC do in these assays?
VACV mCherry inh: -11%; Vaccinia Venus: -1%

What do the screens show for `O=C(NCCCN1CCCC1=O)c1cc(-c2cccnc2)nc2ccc(Cl)cc12`?
VACV mCherry inh: -3%; Vaccinia Venus: -1%

Results for CC(C)CNC(=S)NC1CC2CCCC(C1)N2Cc1cccs1 (stereo unspecified) ?
VACV mCherry inh: -6%; Vaccinia Venus: -20%

How did CN(CCc1ccc(Cl)c(Cl)c1)CC(O)COc1ccc(NS(C)(=O)=O)cc1 (stereo unspecified) do in these assays?
VACV mCherry inh: inactive; Vaccinia Venus: -15%

What do the screens show for `Cc1ccc(NC(=O)CN(C)C(=O)c2ccc3[nH]c4c(c3c2)CC(C)CC4)cc1` (stereo unspecified)?
VACV mCherry inh: inconclusive; Vaccinia Venus: inconclusive

Results for CCCCCCn1c(O)c(C=Nc2c(C)n(C)n(-c3ccccc3)c2=O)c(=O)[nH]c1=O ?
Vaccinia Venus: -19%

What do the screens show for `COCC(=O)Nc1cc(C)c2c(=O)oc3ccccc3c2n1`?
VACV mCherry inh: 9%; Vaccinia Venus: 2%

How did O=C1NC(c2cccc(Cl)c2)Oc2ccccc21 (stereo unspecified) do in these assays?
VACV mCherry inh: -16%; Vaccinia Venus: -12%

Results for COc1ccc(OC)c(NC(=O)COC(=O)COc2c(Cl)cc(Cl)c3ccc(C)nc23)c1 ?
VACV mCherry inh: inactive; Vaccinia Venus: -6%

How did CC(C)(C)N1C(=O)c2ccc(C(=O)Nc3nccs3)cc2C1=O do in these assays?
Vaccinia Venus: -21%

How did O=C(c1ccc(S(=O)(=O)N2CCCC2)cc1)N(c1ccccc1)C1C=CS(=O)(=O)C1 (stereo unspecified) do in these assays?
VACV mCherry inh: -17%; Vaccinia Venus: -12%

What do the screens show for `COc1ccccc1Cn1c(C)c(C(=O)NCc2ccc3c(c2)OCCO3)sc1=O`?
VACV mCherry inh: 5%; Vaccinia Venus: 6%

What do the screens show for `Cc1cc(OCC[N+]2(C)CCCCC2)nc2ccccc12`?
Vaccinia Venus: -5%

How did O=C(c1cccc(C(=O)N2CCN(c3ncccn3)CC2)c1)N1CCN(c2ncccn2)CC1 do in these assays?
Vaccinia Venus: 1%

Results for O=C1Cc2ccccc2Sc2ccc(Cl)cc21 ?
Vaccinia Venus: -1%

What do the screens show for `COc1ccc2oc(=O)c(C(=O)NCCc3c(C)[nH]c4ccc(C)cc34)cc2c1`?
VACV mCherry inh: 2%; Vaccinia Venus: 2%

What do the screens show for `CC(=O)Nc1ccccc1OC(=O)N1CCOCC1`?
VACV mCherry inh: -11%; Vaccinia Venus: -1%

Results for COc1ccc(OC)c(C=Cc2ccc([N+](=O)[O-])cc2)c1 ?
VACV mCherry inh: -9%; Vaccinia Venus: -23%

Results for CC(=O)N(CC(=O)Nc1sc(C)c(C)c1C(N)=O)Cc1ccccc1 ?
VACV mCherry inh: -4%; Vaccinia Venus: -2%

How did CCCCN(C)CCCNC(=O)c1ccc2c(c1)NC(=O)C(N1CCOCC1)S2 (stereo unspecified) do in these assays?
Vaccinia Venus: 0%

Results for Cn1c(=O)c2c(-c3ccccc3)n3c(c2n(C)c1=O)C(c1ccccc1[N+](=O)[O-])Nc1ccccc1-3 (stereo unspecified) ?
VACV mCherry inh: -22%; Vaccinia Venus: -8%

What do the screens show for `CCc1ccc(NC(=O)CSc2ccc(-c3sc(-c4ccccc4)nc3C)nn2)cc1`?
VACV mCherry inh: -13%; Vaccinia Venus: -20%

What do the screens show for `CNC(=O)N(C1=NCC(C)(C)S1)c1ccc(F)c(Cl)c1`?
VACV mCherry inh: inactive; Vaccinia Venus: -8%

Results for O=C(O)/C=C/C(=O)N1CCN(S(=O)(=O)c2cccc(C(F)(F)F)c2)CC1 ?
VACV mCherry inh: inactive; Vaccinia Venus: -5%

Results for COc1cccc(Oc2ccc(N)cn2)c1 ?
VACV mCherry inh: -4%; Vaccinia Venus: 5%

Results for CC[C@@H]1CCCCc2ccccc2[C@@H](C(=O)C[C@H](O)CC(C)=O)OC1=O ?
VACV mCherry inh: -8%; Vaccinia Venus: -8%

Results for CC(C)CC(=O)NC1(C(F)(F)F)C(=O)Nc2c1c(=O)[nH]c(=O)n2Cc1ccco1 (stereo unspecified) ?
VACV mCherry inh: inactive; Vaccinia Venus: -9%

Results for CCOc1ccc(C2=NC(c3cccs3)=Nc3ccc(C(C)C)cc3N2)cc1 ?
VACV mCherry inh: -15%; Vaccinia Venus: -23%

What do the screens show for `CCOc1ccccc1NC(=O)C(C)N1C(=O)c2ccccc2S1(=O)=O` (stereo unspecified)?
VACV mCherry inh: inactive; Vaccinia Venus: -12%

How did FC(F)(F)c1cccnc1N1CCN(c2ncnc3nc[nH]c23)CC1 do in these assays?
VACV mCherry inh: -29%; Vaccinia Venus: -24%

How did O=C(CNC(=O)C12CC3CC(CC(C3)C1)C2)N1CCN(S(=O)(=O)/C=C/c2ccccc2)CC1 do in these assays?
VACV mCherry inh: -9%; Vaccinia Venus: -10%

What do the screens show for `Cc1cc2oc(=O)cc(-c3ccccc3)c2c(C)c1-c1ccc(O)cc1`?
VACV mCherry inh: -14%; Vaccinia Venus: -11%

How did Cc1ccc(CNC(=O)CCCn2c(=O)c3ccccc3n(Cc3ccccc3C)c2=O)cc1 do in these assays?
VACV mCherry inh: -16%; Vaccinia Venus: -6%

What do the screens show for `CCCN1C(=O)/C(=C/C=C2\N(CC)c3ccccc3C2(C)C)SC1=S`?
VACV mCherry inh: 27%; Vaccinia Venus: 176%[activator]

How did COC(=O)Cc1csc(Nc2c(C)n(C)n(-c3ccccc3)c2=O)n1 do in these assays?
VACV mCherry inh: -4%; Vaccinia Venus: -9%

What do the screens show for `Cc1ccc(NC(=O)CC(C)c2ccccc2)cc1S(=O)(=O)N1CCOCC1` (stereo unspecified)?
VACV mCherry inh: inactive; Vaccinia Venus: -13%

What do the screens show for `COC(=O)[C@H](CCSC)NC(=O)Nc1ccc(OC)cc1OC`?
VACV mCherry inh: -14%; Vaccinia Venus: -4%

What do the screens show for `COCc1cc(C)nc(NC2CCCCC2)c1C#N`?
VACV mCherry inh: -14%; Vaccinia Venus: -4%

How did CN(C)C(=O)c1ccc(Cl)cc1[N+](=O)[O-] do in these assays?
VACV mCherry inh: -4%; Vaccinia Venus: 2%

Results for COCCCNC(=O)CSc1nc2cc3c(cc2c(=O)n1CCCCCC(=O)NCCc1ccc(OC)c(OC)c1)OCO3 ?
VACV mCherry inh: -7%; Vaccinia Venus: -10%

Results for CC(C)n1c(SCC(=O)NCc2ccco2)nnc1C1CC1 ?
VACV mCherry inh: inactive; Vaccinia Venus: -6%

How did CSc1cccc(NC(=S)N2CCC(N(C)C(C)C)CC2)c1 do in these assays?
VACV mCherry inh: -2%; Vaccinia Venus: 3%

Results for CCOC(=O)c1c[nH]c2nc(C)ccc2c1=O ?
VACV mCherry inh: -9%; Vaccinia Venus: -3%

How did CN(C)c1ccc(P(=O)(COc2ccc([N+](=O)[O-])cc2)c2ccc(N(C)C)cc2)cc1 do in these assays?
VACV mCherry inh: inconclusive; Vaccinia Venus: -8%

How did C=CCn1c(=O)/c(=C/c2ccc(C)o2)s/c1=C(/C#N)C(=O)c1ccccc1 do in these assays?
VACV mCherry inh: 29%; Vaccinia Venus: 39%[activator]

Results for C=CCNC(=O)C1CC(=O)N(c2ccc(OCC(=O)Nc3ccccc3)cc2)C1 (stereo unspecified) ?
VACV mCherry inh: -9%; Vaccinia Venus: -7%

What do the screens show for `CCc1ccc(-n2c(SCc3nc(-c4cc(OC)ccc4OC)no3)nnc2-c2ccccc2)cc1`?
VACV mCherry inh: -16%; Vaccinia Venus: -11%

What do the screens show for `O=C(Cn1cnc2ccccc21)Nc1ccccc1-c1ccccc1`?
VACV mCherry inh: -12%; Vaccinia Venus: -26%

How did O=C(Nc1cccc2ccccc12)N1CC=C(c2ccccc2)CC1 do in these assays?
VACV mCherry inh: -15%; Vaccinia Venus: -7%

How did Cc1cccc(Nc2nc(N)c([N+](=O)[O-])c(N3CCC(C)CC3)n2)c1 do in these assays?
VACV mCherry inh: inconclusive; Vaccinia Venus: inconclusive

How did CNC(=O)c1ccsc1NC(=O)c1sc2ccccc2c1Cl do in these assays?
VACV mCherry inh: 8%; Vaccinia Venus: -4%

Results for COc1ccc(-c2ccc3c(c2)CN(C(=S)NCCc2ccccc2)Cc2cnnn2-3)cc1 ?
VACV mCherry inh: 3%; Vaccinia Venus: -5%

Results for CSCCC(c1nnnn1C(C)(C)C)N1CCN(C/C=C/c2ccccc2)CC1 (stereo unspecified) ?
VACV mCherry inh: inactive; Vaccinia Venus: -1%

What do the screens show for `CCOc1cccc(C2CC(=O)Nc3cc4c(cc32)OCCO4)c1` (stereo unspecified)?
VACV mCherry inh: -19%[7.34 µM]; Vaccinia Venus: -22%[7.34 µM]

What do the screens show for `O=[N+]([O-])c1ccc(C[n+]2cccc3ccccc32)cc1`?
VACV mCherry inh: -18%; Vaccinia Venus: -9%

What do the screens show for `CC1CC(C)CN(C(=O)Cn2c(=O)n(CCCCC(=O)NC3CCCC3)c(=O)c3ccccc32)C1` (stereo unspecified)?
Vaccinia Venus: -18%

At a glance, three of the compounds above:
Results for CSCCC(c1nnnn1C(C)(C)C)N1CCN(C/C=C/c2ccccc2)CC1 (stereo unspecified) ?
VACV mCherry inh: inactive; Vaccinia Venus: -1%

What do the screens show for `CCOc1cccc(C2CC(=O)Nc3cc4c(cc32)OCCO4)c1` (stereo unspecified)?
VACV mCherry inh: -19%[7.34 µM]; Vaccinia Venus: -22%[7.34 µM]

What do the screens show for `O=[N+]([O-])c1ccc(C[n+]2cccc3ccccc32)cc1`?
VACV mCherry inh: -18%; Vaccinia Venus: -9%

Remaining list, next part:
Results for O=C1/C(=C/c2ccc(F)cc2)SC(=S)N1N1CCOCC1 ?
VACV mCherry inh: -12%; Vaccinia Venus: -9%

How did COc1ccccc1CN(CC(=O)NCc1ccc(F)cc1)C(=O)c1csnn1 do in these assays?
VACV mCherry inh: -12%; Vaccinia Venus: -12%

Results for COc1ccc(C(=O)OCC(=O)NC2CC2)cc1S(=O)(=O)N1CCOCC1 ?
VACV mCherry inh: inactive; Vaccinia Venus: 8%

What do the screens show for `O=C(CN1C(=O)CSc2ccc(S(=O)(=O)N3CCCC3)cc21)NCc1ccccc1Cl`?
VACV mCherry inh: -5%; Vaccinia Venus: -2%

How did COc1ccccc1NC(=O)C1CCN(c2ncnc3c2nc2n3CCCCC2)CC1 do in these assays?
VACV mCherry inh: -10%&-29%; Vaccinia Venus: -8%&-27%

How did Cc1ccc(-c2csc3ncnc(Nc4ccc(C(=O)O)cc4)c23)cc1 do in these assays?
VACV mCherry inh: inconclusive; Vaccinia Venus: -22%

How did CC(=O)N1CCc2cc(S(=O)(=O)NCCC(=O)NC3CCCc4ccccc43)ccc21 (stereo unspecified) do in these assays?
VACV mCherry inh: -22%; Vaccinia Venus: -14%

How did O=C(Nc1nc(-c2ccc(F)c(F)c2)cs1)c1ccc(OCC2CCCO2)cc1 (stereo unspecified) do in these assays?
VACV mCherry inh: -24%; Vaccinia Venus: -19%

How did COc1ccc(NC(=O)C23CCC(C)(C(=O)C2)C3(C)C)cc1 (stereo unspecified) do in these assays?
Vaccinia Venus: 5%

What do the screens show for `Cc1ccc(OCc2ccc(C(=O)O)o2)c([N+](=O)[O-])c1`?
VACV mCherry inh: -9%; Vaccinia Venus: -8%

Results for CCCC(=O)OCCNc1cc(Sc2nc3ccccc3[nH]2)c2nonc2c1[N+](=O)[O-] ?
VACV mCherry inh: inconclusive; Vaccinia Venus: inconclusive

What do the screens show for `Cc1ccc(/C=C/C(=O)N2CCCC(C)C2)cc1` (stereo unspecified)?
VACV mCherry inh: inactive; Vaccinia Venus: -10%

How did CCOC(=O)Cc1cc(=O)c2cc(C)ccc2[nH]1 do in these assays?
VACV mCherry inh: 2%; Vaccinia Venus: -9%

What do the screens show for `CCN(C[C@H]1N[C@@](CC)(C(=O)OC)[C@H]2C(=O)N(C)C(=O)[C@@H]12)C(=O)Nc1ccc(C)cc1`?
VACV mCherry inh: inactive; Vaccinia Venus: inconclusive

Sorted by formula weight (rising): part of the list above.
What do the screens show for `Cc1ccc(OCc2ccc(C(=O)O)o2)c([N+](=O)[O-])c1`?
VACV mCherry inh: -9%; Vaccinia Venus: -8%

How did Cc1ccc(-c2csc3ncnc(Nc4ccc(C(=O)O)cc4)c23)cc1 do in these assays?
VACV mCherry inh: inconclusive; Vaccinia Venus: -22%

How did COc1ccccc1CN(CC(=O)NCc1ccc(F)cc1)C(=O)c1csnn1 do in these assays?
VACV mCherry inh: -12%; Vaccinia Venus: -12%

How did COc1ccccc1NC(=O)C1CCN(c2ncnc3c2nc2n3CCCCC2)CC1 do in these assays?
VACV mCherry inh: -10%&-29%; Vaccinia Venus: -8%&-27%
